Bioassay records deposited in PubChem by ICCB-Longwood Screening Facility, Harvard Medical School.
Sa helicase inh = blocks Staphylococcus aureus DNA helicase | purified S. aureus helicase, fluorescence unwinding assay; about half of the hits fall short of the stated cut | inhibition, %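 (tested at about 80 µM)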 | hit rate 0.05% among 120,000 | AID 485395;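 active = both duplicates at 50% or more, or one of them with a favoured structure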;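 note: 0% = mean of negative control wells and 100% = mean of positive control wells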
MgrA-DNA mod = alters Staphylococcus aureus MgrA binding to DNA; fluorescence polarization; inhibition, %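 (about 10 µg/mL by stock and volumes)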; hit rate 0.13% among 84,000;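 active = above 50% in either of two replicates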;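 note: 0% = protein plus DNA without compound and 100% = DNA alone without protein; higher means less MgrA bound to DNA so lower polarization; one replicate is shown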
The depositor's hits bear a star; / = no result given. An excerpt (hit frequency here may not be typical).

Structure	Sa helicase inh	MgrA-DNA mod
COCCOc1ccc(C(F)(F)F)cc1NCC(=O)NCc1ccc2c(c1)OCO2	10.0	/
Cc1cc(C(=O)O)c2cc(F)ccc2n1	11.0	-0.4
O=C(O)c1ccc(N2C(=O)C3C4C=CC(C4)C3C2=O)cc1 (stereo unspecified)	14.0	/
CC(C)Cn1c(=O)c2ccccc2n2c(CCC(=O)O)nnc12	-30.0	/
CCC(C)OC(=O)C1=C(C)NC(=O)NC1c1ccc(F)c(Br)c1 (stereo unspecified)	14.0	/
CCCc1cc(=O)[nH]c(SCC(=O)N2CCC(C)CC2)n1	4.0	/
O=C1c2ccccc2S(=O)(=O)NN1CC(=O)N1CCCc2ccccc21	13.0	/
O=C(Nc1ncc(Cc2ccc(F)cc2)s1)c1csc2c1CCCC2	/	-3.1
Cc1nn(C2CCS(=O)(=O)C2)c(Cl)c1/C=C/C(=O)OCc1csc(-c2ccccc2)n1 (stereo unspecified)	3.0	/
Cc1cc(C(=O)N2CCNCC2)c(-c2ccccc2)o1	9.0	/
Nc1nc(NCc2c(F)cccc2Cl)nn1-c1ccccc1	16.0	2.1
CN1CCC(=NOC(=O)c2ccc(Cl)cc2)CC1	11.0	/
CCN(CC)C(=O)Cn1ncc2c1-c1cc(C)ccc1OC2	-2.0	/
CCOc1ccc(-n2c(N)c(C(=O)N3CCN(C)CC3)sc2=S)cc1	3.0	1.4
COC(=O)c1ccsc1NC(=O)/C=C\C(=O)O	13.0	/
COc1cc(/C=C(\C#N)c2ccc(Cl)cc2)ccc1OC(=O)C1COc2ccccc2O1 (stereo unspecified)	5.0	-1.5
CCOc1ccc(Nc2ncnc3nc[nH]c23)cc1	3.0	/
COc1cc(-c2noc(C)n2)cc(OC)c1OC	/	-3.5
NNC(=O)CSc1c(-c2cccs2)[nH]c2ccccc12	-2.0	0.6
CCSc1nc(-c2ccccc2)cc(C)c1C#N	-16.0	/
O=C(CN1CCN(c2ccccc2Cl)CC1)NC(=O)Nc1ccccc1F	27.0	/
CCOC(=O)N1CCN(C(=O)CCN2c3ccccc3Sc3ccccc32)CC1	-13.0	/
CN(C)S(=O)(=O)c1ccc(C(=O)OCC2CCCO2)cc1 (stereo unspecified)	-9.0	/
OCc1cn(-c2ccccc2)nc1-c1ccccc1	-16.0	0.7
Cc1cccc(NC(=O)CCCN2C(=O)/C(=C/c3cccs3)SC2=S)c1C	-16.0	/
O=c1c(O)c(-c2ccc(O)cc2)oc2cc(O)cc(O)c12	/	-0.2
COc1ccccc1N=C(NO)C(=Nc1ccccc1OC)NO	-6.0	-1.2
O=C(O)C1CC(=O)N(Cc2ccccc2)C(=Nc2ccc(F)cc2)S1 (stereo unspecified)	-17.0	0.5
N#CC1=C(N)N(c2ccc(S(N)(=O)=O)cc2)C2=C(CCC2)C1(C(F)(F)F)C(F)(F)F	15.0	1.2
COC(=O)c1cn(C(=O)c2ccco2)c2ccccc12	4.0	/
O=c1cc(N2CCCC2)c2ccccc2o1	-6.0	-3.5
COC(=O)Cn1ncc2c3ccccc3n(Cc3ccccc3F)c2c1=O	8.0	/
COc1ccc(NC(=O)C2CCCNC2=O)cc1 (stereo unspecified)	13.0	/
CC(=O)NC(=O)c1cccc2cccc(I)c12	/	-1.2
Cc1nnc(SCC(=O)Nc2cc(C(F)(F)F)ccc2N2CCOCC2)n1C1CC1	0.0	/
NC(=O)CSc1ncnc2sc(-c3ccccc3)cc12	-13.0	/
O=C(CSc1nnc(-c2ccncc2)n1Cc1ccco1)N(c1ccccc1)c1ccccc1	1.0	-1.4
O=C1Nc2ccccc2S(=O)(=O)N1Cc1ccccc1	-3.0	/
Cc1cc(=O)[nH]c(NNC(=O)NC2CCCCC2)n1	-5.0	/
COc1ccc(-n2ncc3c(NCCC4=CCCCC4)ncnc32)cc1	9.0	/
O=C(Cc1ccc(Oc2ccccc2)cc1)c1ccccc1	/	2.0
CC(NC(=O)CN1CCN(C(=O)c2cccs2)CC1)c1ccc(F)cc1F (stereo unspecified)	-12.0	/
CC1S/C(=N\NC(=O)CNc2cccc(Cl)c2)N(c2ccccc2)C1=O (stereo unspecified)	1.0	0.9
CCCCC(CC)C(=O)Nc1nnc(C(C)C)s1 (stereo unspecified)	3.0	3.0
Clc1ccc2c(c1)c1nc3ccccc3nc1n2Cc1nc2ccccc2o1	-6.0	-0.6
Clc1ccc(-n2ccc3ccccc32)cc1	5.0	0.5
O=C(c1nc2ncccn2n1)N1CCN(C(c2ccccc2)c2ccccc2)CC1	-1.0	0.7
CCOc1ccc(C(=O)N2CCC(Cc3ccccc3)CC2)cc1	0.0	/
O=C(O)CN(Cc1ccccc1)Cc1ccccc1	/	0.8
CC(C#N)Sc1nc(C2CCCCC2)n(-c2ccccc2)n1 (stereo unspecified)	6.0	/

Molecules above that have a CF3 group:
Structure	Sa helicase inh	MgrA-DNA mod
COCCOc1ccc(C(F)(F)F)cc1NCC(=O)NCc1ccc2c(c1)OCO2	10.0	/
N#CC1=C(N)N(c2ccc(S(N)(=O)=O)cc2)C2=C(CCC2)C1(C(F)(F)F)C(F)(F)F	15.0	1.2
Cc1nnc(SCC(=O)Nc2cc(C(F)(F)F)ccc2N2CCOCC2)n1C1CC1	0.0	/

The listing continues:
Structure	Sa helicase inh	MgrA-DNA mod
CC(C)(C)OC(=O)NC1CCN(S(=O)(=O)c2ccc(Cl)cc2)CC1	-14.0	/
Cc1ccc(Nc2cc3oc4cc(C)ccc4[nH]c3c3c(=O)c4ccccc4c(=O)c23)cc1	/	-0.2
O=C(O)CNC(=O)c1cc(C(F)(F)F)cc(C(F)(F)F)c1	-24.0	/
CC1=C(C(C)C)Nc2nnnn2C1c1ccc(Br)cc1 (stereo unspecified)	-10.0	/
COC(=O)c1cc2c(-c3cccs3)nn(-c3ccccc3)c2n1Cc1cccc(C)c1	8.0	1.3
O=c1[nH]c(CSc2nnc(-c3cccnc3)n2-c2ccccc2)nc2ccccc12	11.0	/
Cc1ccc2nc(-c3ccc(C)o3)c(Nc3ccc4c(c3)OCO4)n2c1	-28.0	/
CC1=C(c2ccc(C)cc2)S(=O)(=O)NC1=NC(C)C12CC3CC(CC(C3)C1)C2 (stereo unspecified)	13.0	-0.7
Cc1ccc(C(=O)OC(c2ccccc2)c2nccc3ccccc23)cc1 (stereo unspecified)	7.0	0.1
Cc1cc(OCC(=O)Nc2ccc(N3CCN(C(=O)c4ccco4)CC3)cc2)cc(C)c1Cl	-2.0	1.2
Cc1ccc(C(=O)CC(C(=O)O)n2cccn2)cc1 (stereo unspecified)	3.0	-1.5
C=CCOc1cc(C)nc(-c2ccccc2O)n1	2.0	2.3
Nc1nc(Nc2ccc(Cl)cc2)n[nH]1	/	-1.9
Cc1ccoc1CC[N+](C)(C)C	-3.0	-0.5
Cc1cccc(N2CCN(CCNC(=O)c3c(C)nn(-c4ccc(F)cc4)c3-n3cccc3)CC2)c1C	15.0	/
CCCN(C(=O)COc1ccccc1F)c1c(N)n(Cc2ccccc2)c(=O)[nH]c1=O	5.0	/
CC1CN(C(=O)COC(=O)/C=C/c2ccccc2)CC(C)O1 (stereo unspecified)	-17.0	1.2
CC1(C)CC(CCc2nc(=S)[nH][nH]2)C(=O)O1 (stereo unspecified)	4.0	-1.9
O=S(=O)(/C=C/c1ccccc1)N1CCN(c2cccc(Cl)c2)CC1	9.0	/
CCOc1ccc(CNCc2cn[nH]c2-c2ccccc2)cc1	0.0	1.2
O=C(/C=C/c1ccc(F)cc1)N(CCO)Cc1ccccc1	4.0	-1.1
CCOC(=O)CSc1nc2ccccc2c(=O)n1Cc1ccco1	-4.0	/
COc1ccccc1C(CCNCc1ccccc1)c1ccco1 (stereo unspecified)	12.0	-0.5
CCOC(=O)c1ccc2nc(NC(=O)CSC3=NC(=O)C(CC)C(=O)N3)sc2c1 (stereo unspecified)	25.0	/
CCN(CC(=O)Nc1ccc2c(c1)OCCO2)CC(=O)c1c(C)[nH]c2ccccc12	5.0	/
O=C1OC(c2cc([N+](=O)[O-])ccc2Cl)=N/C1=C/c1cc(Br)cs1	/	0.4
COc1ccc(NC2=CC(=O)C=CC2=O)cc1	11.0	/
c1ccc(N2CCN(c3nc4ccccc4n4cnnc34)CC2)cc1	-19.0	/
Cc1ccc(NC(=O)CC2Sc3ccccc3NC2=O)cc1 (stereo unspecified)	-25.0	/
COCCNC(=O)c1ccccc1CSc1nc2ccccc2o1	-8.0	/
Cc1nnc(Nc2cccc(Cl)c2C)s1	/	1.1
COC(=O)c1c(C)oc2ccc(OCC#N)cc12	2.0	0.7
Cc1ccc2oc(-c3cc(NC(=O)c4cccc5c(Br)cccc45)ccc3Cl)nc2c1	/	0.1
CCOc1ccc(CN(C)CC(=O)NC2(C#N)CCCC2)cc1	0.0	/
CC1Cc2ccccc2N1C(=O)COC(=O)c1ccccc1 (stereo unspecified)	0.0	-1.8
O=C1NC2(CCCCC2)NC2=C1CCCC2	/	-1.8
CC(C)(C)c1ccc(Oc2c(C(F)(F)F)oc3cc(OCC(=O)O)ccc3c2=O)cc1	/	1.1
NS(=O)(=O)c1ccc(Nc2nc3nonc3nc2Nc2ccc(S(N)(=O)=O)cc2)cc1	-3.0	5.5
O=C(CN1CC(=O)Oc2ccccc21)OCC(=O)c1ccccc1	6.0	6.2
O=C(c1ccc2c(c1)N(Cc1ccc(F)cc1)CCS2)N1CCCCC1	2.0	1.6
Cc1ccc(C(=O)Nc2cc(C(C)(C)C)nn2C)cc1	-9.0	/
Cc1cc(C2=Nc3ccccc3SC(c3c(Cl)cccc3Cl)C2)ccc1Cl (stereo unspecified)	/	-0.6
S=C(c1ccc(-c2ccc(Cl)cc2)o1)N1CCOCC1	32.0	/
Oc1c(/C=N/N2CCOCC2)cc2c3c1CCCN3CCC2	-189.0	/
CN(C)C1=NC(C(F)(F)F)(C(F)(F)F)N=C(c2ccccc2)O1	-14.0	0.3
COc1cccc(Oc2c(C(F)(F)F)oc3cc(OC)ccc3c2=O)c1	7.0	-1.3
O=C1NC(=Nc2ccc(O)cc2)S/C1=C\c1ccc(C(=O)O)cc1	11.0	/
COC(=O)CCn1ccnc1C	-12.0	/
CC(C)NC(=O)CSc1nnc(CSc2cc(C(F)(F)F)nc3ccccc23)n1C	/	-0.3
CC(C)S(=O)(=O)/C(C#N)=C/N1CCC(C(F)(F)F)CC1	/	1.9

Later entries
Structure	Sa helicase inh	MgrA-DNA mod
COc1ccc(/C=C2\CCc3ccccc3C2=O)c(Cl)c1OC	/	-1.0
Cc1ccc2cc(CCNC(=O)Cc3cccs3)c(=O)[nH]c2c1	-4.0	/
COc1ccc(N2CCN(C(=O)CN(c3cccc(C(F)(F)F)c3)S(C)(=O)=O)CC2)cc1	13.0	1.2
Cc1ccc(C(=O)NC2CCCCCCC2)cc1I	9.0	-0.2
O=C(NNc1ccc(F)cc1)c1cc(Cl)nc(OCC(F)(F)F)c1	-14.0	/
CN(C)c1ccc(/C=C/C(=O)C(C(=O)c2ccccc2)=C2SCCS2)cc1	-3.0	-1.1
CS(=O)(=O)NNc1c(Cl)cc(Cl)cc1Cl	/	-2.5
CC(C)(C)c1ccc(-c2noc(CSc3n[nH]c(=O)n3C3CC3)n2)cc1	-11.0	/
O=C(c1ccc(-c2cccc(C(F)(F)F)c2)o1)N1CCOCC1	6.0	-4.8
Cn1nccc1NC(=O)CCC(=O)O	/	-3.0
Cc1ccc2nc(N3CC(=O)N(CCc4ccccc4)C(=O)C3)c3nncn3c2c1	18.0	0.2
O=C(Oc1c(CN2CCOCC2)cc(Cl)c2cccnc12)c1ccccc1Cl	7.0	0.3
CCc1c(C)nc2n(c1=O)C(CS(=O)(=O)c1ccc(C)cc1)CS2 (stereo unspecified)	5.0	0.0
Cc1cc(OCc2cc(F)cc(F)c2)ccc1[N+](=O)[O-]	/	2.5
O=C(NCCCn1ccnc1)c1nn2c(C(F)(F)F)cc(-c3ccccc3)nc2c1Br	/	4.0
O=C(NCc1cccs1)c1cc(-c2cccs2)on1	7.0	1.6
CCCCOc1ccc(C(=O)CCC(=O)O)cc1	/	0.9
FC(F)Oc1cc(C(F)(F)F)cc(C(F)(F)F)c1	-9.0	/
OC1Cc2cccc3cccc1c23 (stereo unspecified)	23.0	/
O=C1C(=Cc2ccc3c(c2)OCO3)C(=O)c2ccccc21	1.0	15.0
O=C(c1cccc(F)c1)N1CC=C(c2ccccc2)CC1	/	-0.7
CN1CCN(S(=O)(=O)c2ccc3c(c2)OCCO3)CC1	-17.0	/
CC(C)C(SCc1ccccc1)C(=O)NC(N)=O (stereo unspecified)	-3.0	/
COCCCn1c(=O)[nH]c(=O)c2c(N)c(C(=O)c3ccccc3)sc21	13.0	/
CCn1cc(-c2cc(C(=O)O)on2)cn1	-11.0	-2.0
CCOc1ncccc1C(=O)N(C)CC1COc2ccccc2O1 (stereo unspecified)	6.0	/
